GALR2 agonist: activates the human galanin receptor 2; activation, %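 (tested at 5 µM)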; hit rate 0.48% among 140,000; O43603; GALR2-expressing cells, agonist activation read-out;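 active = above mean plus 3 SD of all compounds, about 5% in these data, not always enough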;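 note: 0% = vehicle buffer wells and 100% = reference agonist at full effect; tested in CHO reporter cells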
PKD1 kinase inh: PKD1 (human) kinase inhibition; PKD1 kinase fluorescence polarization assay; hit rate 0.056% among 200,000; inhibition, %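 (about 10 µM by stock and volumes)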;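 active = inhibition of 50% or more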;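 note: controls were vehicle for no effect and a reference inhibitor for full effect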
INS promoter inh: TRM-6 insulin promoter activity inhibition | TRM-6 cells (human fetal islet line), insulin promoter-eGFP reporter, imaging; reporter expression induced with tamoxifen | hit rate 0.9% among 130,000 | inhibition, % at 2 µM;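 active = inhibition above the mean plus 3 SD, with well images judged a real hit on visual review, cut at about 60% in these data, passing the limit was not always enough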
HSV augment: HSV replication enhancement; maximum fold increase; hit rate 0.005% among 220,000; AID 1956; HSV replication augmentation in cells, fold increase;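 active = peak rise of 1.5-fold or more in the series; tested in PC3 cells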;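 note: first round at 10 µM; read as green reporter fluorescence; hits show the peak of a series up to 25 µM; 1 = signal of infected wells without compound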
RGS16-Gao HTS: modulates binding between human RGS16 and Galphao; O15492+P09471; bead-based flow cytometry RGS16-Galphao binding, fluorescence; actives lie on both sides; binding response (% of control), % at 10 µM; hit rate 0.38% among 220,000;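 active = below 25% or above 175%, edge rows of some plates excepted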;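 note: Galphao activated by GDP with aluminum fluoride before binding; 100% = wells without compound and 0% = beads without RGS; some results beyond the cut were filed as inactive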
Target sequence (O15492 whole entry, looked up): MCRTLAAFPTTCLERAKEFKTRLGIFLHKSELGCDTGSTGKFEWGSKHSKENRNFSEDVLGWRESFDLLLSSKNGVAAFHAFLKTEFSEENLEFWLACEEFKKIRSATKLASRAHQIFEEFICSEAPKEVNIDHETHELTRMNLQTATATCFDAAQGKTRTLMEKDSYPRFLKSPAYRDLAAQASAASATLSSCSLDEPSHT
Target sequence (P09471 whole entry, looked up): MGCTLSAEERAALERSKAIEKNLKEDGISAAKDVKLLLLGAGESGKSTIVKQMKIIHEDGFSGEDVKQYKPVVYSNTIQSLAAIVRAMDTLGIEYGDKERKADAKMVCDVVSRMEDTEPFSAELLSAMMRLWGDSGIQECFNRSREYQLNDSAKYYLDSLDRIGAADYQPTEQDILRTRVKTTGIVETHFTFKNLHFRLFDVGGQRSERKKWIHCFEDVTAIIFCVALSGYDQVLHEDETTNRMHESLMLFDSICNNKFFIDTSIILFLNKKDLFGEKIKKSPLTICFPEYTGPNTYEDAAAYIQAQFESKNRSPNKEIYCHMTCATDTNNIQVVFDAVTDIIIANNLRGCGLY
INS promoter inh cell count: recorded beside INS promoter inh, whose call it bears; normalized cell count, %; measured here: cell count, toxicity; reference of the scale not given here;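 cells exposed to compound for 48 h; stained nuclei by imaging scaled within each plate; lower means fewer cells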
HSV augment primary fold: further read-out of HSV augment, marked with its call; fold increase; compound at 10 µM; measured here: primary screen fold increase 10 uM; tested in PC3 cells;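 GFP signal in the first replicate; 1 = infected wells without compound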
An asterisk follows results filed as active; i = inactive; . = not tested or not shown. Random draw from the library; about 1.3% have a hit in one of these screens.

SMILES	GALR2 agonist	PKD1 kinase inh	INS promoter inh	INS promoter inh cell count	HSV augment	HSV augment primary fold	RGS16-Gao HTS
CSc1ccccc1NC(=O)CN(c1cc(C)cc(C)c1)S(C)(=O)=O	0.1	9	-36	169	i	1.1	104
CCOC(=O)N1CCN(C(=O)C(NC(=O)C2CCC(C)CC2)C(C)C)CC1 (configuration not stated)	-2.2	6	-71	89	i	0.95	103
O=C(Cc1ccc([N+](=O)[O-])cc1)Nc1cccnc1	.	.	.	.	i	0.96	102
CCOC(=O)C(NC(C)=O)C(=O)O (configuration not stated)	0.3	-2	0	123	i	0.92	112
O=C(Nc1ccc2nc(-c3ccccc3)[nH]c2c1)c1cccs1	1.2	-1	77*	185*	i	0.8	118
O=C(NC1CCS(=O)(=O)C1)c1cnccn1 (configuration not stated)	0.4	-9	24	91	.	.	97
O=C(Oc1coc(CSc2ncccn2)cc1=O)c1cccc([N+](=O)[O-])c1	.	-4	-17	135	i	0.98	100
CCN(CC)C(=S)SCC(=O)Nc1ccc(F)cc1	-1.6	-7	-62	60	i	0.98	100
CCOC(=O)c1cnc(SC2CC(=O)N(c3cccc(OC)c3)C2=O)nc1N (configuration not stated)	0.3	-5	.	.	i	1	104
Cc1ccc(-c2nc3ccccn3c2NC(=O)c2ccco2)cc1	-1.7	-8	43	138	i	1.2	.
Cc1ccsc1/C=N/Nc1ncnc2nc[nH]c12	.	0	-33	164	i	0.9	104
CCOc1ccc(NC(=O)COC(=O)C23CC4CC(CC(C4)C2)C3)c([N+](=O)[O-])c1	-0.8	-7	12	99	i	0.96	71
N#C/C=C\Oc1ccc(Cl)cc1N	-1.5	-15	.	.	.	.	97
CC(/C=C/c1ccccc1F)=N\NC(=O)c1ccc(Cl)cc1	.	-9	.	.	i	1.1	98
c1coc(-c2nc3c4c5c(sc4ncn3n2)CCCC5)c1	-0.4	-3	-32	130	i	0.82	106
Cc1nnc(SCCc2ccccc2)[nH]c1=O	-1.6	9	-18	109	i	0.88	101
COc1ccc(N(C)C(=O)c2cc3c(s2)-c2c(C)cccc2OC3)c(OC)c1	.	.	.	.	i	0.81	106
CC(C)CCN1C(=O)CCC1(C)C(=O)NC1CCCCCCC1 (configuration not stated)	-0.3	-4	1	114	i	0.98	100
Cc1ccc(NC(=O)c2ccc(N3C(=O)C4CC=C(Cl)CC4C3=O)cc2)cc1 (configuration not stated)	-0.5	8	.	.	i	0.73	101
O=C(CCc1ccccn1)N1CCCC(CNS(=O)(=O)c2cccs2)C1 (configuration not stated)	.	-6	.	.	i	0.89	109
O=C(COc1cccc(C(F)(F)F)c1)Nc1ccc(S(=O)(=O)N2CCCC2)cc1	1.7	-5	-18	71	i	0.81	103
O=C1CCN(C(=O)Nc2cccc(Cl)c2)N1	-1.0	12	-21	81	i	0.91	108
O=C(CS(=O)(=O)Cc1ccccc1)N1CCN(C(=O)c2ccco2)CC1	0.2	-5	.	.	i	0.92	107
O=C(O)C(Cc1ccccc1)N1C(=O)/C(=C/c2cccnc2)SC1=S (configuration not stated)	.	.	.	.	i	1	80
N#CC(C(=O)c1ccccc1)=C1SCCS1	.	.	.	.	i	1.1	100

3 of the entries above in order of their number in GALR2 agonist, falling:
mol	GALR2 agonist
O=C(NC1CCS(=O)(=O)C1)c1cnccn1 (configuration not stated)	0.4
N#C/C=C\Oc1ccc(Cl)cc1N	-1.5
CCN(CC)C(=S)SCC(=O)Nc1ccc(F)cc1	-1.6

Reformatted with bars between the fields: part of the list above
canonical_smiles | GALR2 agonist | PKD1 kinase inh | INS promoter inh | INS promoter inh cell count | HSV augment | HSV augment primary fold | RGS16-Gao HTS
CCOC(=O)c1cnc(SC2CC(=O)N(c3cccc(OC)c3)C2=O)nc1N (configuration not stated) | 0.3 | -5 | . | . | i | 1 | 104
Cc1ccc(-c2nc3ccccn3c2NC(=O)c2ccco2)cc1 | -1.7 | -8 | 43 | 138 | i | 1.2 | .
Cc1ccsc1/C=N/Nc1ncnc2nc[nH]c12 | . | 0 | -33 | 164 | i | 0.9 | 104

Further compounds:
SMILES	GALR2 agonist	PKD1 kinase inh	INS promoter inh	INS promoter inh cell count	HSV augment	HSV augment primary fold	RGS16-Gao HTS
COc1cc(OC)cc(C(=O)NC(C)c2cnn(-c3ccccc3C)c2C)c1 (configuration not stated)	.	-4	.	.	i	0.86	103
COc1cc(C(CCN2CCCCC2)c2c(OC)cc(OC)c3c(-c4ccccc4)cc(=O)oc23)cc(OC)c1OC (configuration not stated)	.	.	.	.	i	0.78	96
CCOC(=O)CNC(c1ccccc1)c1cc(Br)ccc1NC(=O)OCC (configuration not stated)	0.1	-3	-52	113	i	1.1	104
CCOc1ccc2nc(C)cc(Nc3ccc(N4CCOCC4)cc3)c2c1	-0.5	-3	22	110	i	0.6	81
O=C(Nc1nccs1)c1cc(-c2ccccc2)nn1-c1ccccc1	-0.6	-7	22	129	i	0.87	105
O=C1N/C(=N\N=C\c2ccco2)SC1Cc1ccc(F)cc1 (configuration not stated)	.	-1	.	.	i	0.97	97
Cc1ccc(CCn2c3c(c4ccccc42)CN(C)CC3)cn1	-1.1	-11	.	.	i	1	98
COc1ccc(-c2cc(=O)oc3c(C)c(O)c(CN(C)C)cc23)cc1	-1.1	-5	-25	52	i	0.84	90
CN(C)C(=O)CN1CCN(Cc2cn(C)nc2-c2ccc3c(c2)OCCO3)CC1	.	2	.	.	i	1.1	111
CCn1nc(C)c(CN2CCCC(C(=O)c3cccc(OC(C)C)c3)C2)c1C (configuration not stated)	.	-3	9	170	i	0.89	116
Clc1ccc2c(N3CCCC3)ccnc2c1	1.0	0	3	68	i	1	104
O=C(CSc1nnc(-c2ccc(F)cc2)n1-c1ccccc1)NCCN1C(=O)CSC1=O	-0.3	-12	-15	113	i	1.1	107
CCCCCC(=O)Nc1nc(C)c(-c2csc(Nc3cc(OC)ccc3OC)n2)s1	0.8	-4	7	99	i	0.69	103
CC(=O)NC(=S)Nc1ccc(NC(=O)COc2ccc(C(C)C)cc2)cc1	-0.4	0	75*	106*	i	0.91	101
CCC(=O)OCC(=O)c1c(N)n(Cc2ccccc2)c(=O)n(C)c1=O	-2.1	-4	-36	81	i	0.97	103
Cc1ccc(C)c(S(=O)(=O)N/N=C/c2ccc(N(C)C)cc2)c1	.	11	.	.	i	1.1	98
COc1ccc(N2CCC(CNC(=S)Nc3cc(C)cc(C)c3)C2)cc1 (configuration not stated)	.	.	.	.	i	0.95	103
CCOc1ccc(CN2CCN(Cc3cnn(CC)c3C)CC2CCO)cc1 (configuration not stated)	.	-2	.	.	i	0.91	103
O=C(c1ccc2c(c1)C(=O)N(c1ccc(Cl)cc1)C2=O)N1CCN(c2ccccn2)CC1	-1.4	-7	.	.	i	1.1	.
O=C(CN1C(=O)CCC1=O)Nc1nc(-c2nc3ccccc3s2)cs1	-2.4	3	.	.	i	0.92	99
Cc1nnc(NC(=O)c2oc3cc(C)c(C)cc3c2C)s1	-2.7	-2	.	.	i	0.98	102
C=CCOc1ccc(CNC(C)(C)C)cc1OC	-0.6	-7	-42	52	i	0.95	103
CC(C)=C1SC(N2CCN(Cc3ccccc3)CC2)=NC1=O	0.1	1	.	.	i	0.91	102
Cc1ccc(-n2nc3ccc(N)cc3n2)cc1	3.7	-6	-19	73	i	0.62	97
O=C(CC1C(=O)N(c2ccc(Cl)cc2)C(=S)N1CCc1ccncc1)Nc1ccc(F)cc1 (configuration not stated)	-1.4	-3	.	.	i	0.68	103
The list goes on.
SMILES	GALR2 agonist	PKD1 kinase inh	INS promoter inh	INS promoter inh cell count	HSV augment	HSV augment primary fold	RGS16-Gao HTS
COc1ccc(-c2cn[nH]c2N)cc1OC	-0.6	-4	67	135	i	0.96	94
CCn1ccnc1CN(C)C(=O)c1cc(COc2c(F)cccc2F)on1	.	-5	45	96	i	0.91	114
COC(=O)c1cc2oc(C)cc2n1CC(=O)Nc1ccc(OC)c(OC)c1OC	-1.9	-11	18	120	i	0.93	101
Cn1c(SCC(=O)O)nnc1C1CCCCC1	-3.2	-1	83*	107*	i	0.94	110
CCCS(=O)(=O)N1CCCC(C(=O)N2CCN(c3ccccc3)CC2)C1 (configuration not stated)	-1.4	8	.	.	i	0.97	105
Cc1ccc(C(=O)CSc2nnc(COc3ccc(C#N)cc3)n2-c2ccccc2)cc1	-4.5	-1	64	147	i	1.1	62
COc1ccc(NC(=O)CSc2cc(C)nc3c(-c4ccccc4)cnn23)cc1	.	.	.	.	i	0.96	100
CCc1nc(SCC(=O)Nc2ccccc2C(=O)OC)n[nH]1	-2.8	1	-20	55	i	0.95	99
Cc1cc(NS(=O)(=O)Cc2ccccc2)cc(C)c1OCC(=O)N1CCOCC1	-1.6	1	38	95	i	0.92	104
CC(=O)Nc1ccc(NC(=O)CSc2nnc(C3CC3)n2C)cc1	-1.1	0	-39	108	i	1	107
O=C(N/N=C/c1cc(Br)cs1)c1ccc2c(c1)OCCO2	.	.	.	.	i	0.94	100
Cc1ccc(NS(=O)(=O)c2ccc(C(=O)NCC3CCCO3)cc2)cc1 (configuration not stated)	.	-1	11	101	i	0.76	94
COc1cc(C2NC(=S)NC(C)=C2C(=O)OC(C)C)ccc1OC(C)C (configuration not stated)	-1.1	-13	-435	33	i	0.75	98
COc1cc(OC)cc(C(=O)NC2CCN(Cc3nnnn3Cc3cccs3)CC2)c1	-0.8	-5	-30	107	i	0.61	110

Full records as entered above:
Results for `COC(=O)c1cc2oc(C)cc2n1CC(=O)Nc1ccc(OC)c(OC)c1OC` : GALR2 agonist: -1.9; PKD1 kinase inh: -11; INS promoter inh: 18; INS promoter inh cell count: 120; HSV augment: i; HSV augment primary fold: 0.93; RGS16-Gao HTS: 101
Results for `Cc1cc(NS(=O)(=O)Cc2ccccc2)cc(C)c1OCC(=O)N1CCOCC1` : GALR2 agonist: -1.6; PKD1 kinase inh: 1; INS promoter inh: 38; INS promoter inh cell count: 95; HSV augment: i; HSV augment primary fold: 0.92; RGS16-Gao HTS: 104
